Screening results: PubChem BioAssay, several laboratories
PABP FP inh: PABP-poly(A) binding inhibition. P11940. PABP-poly(A) RNA binding, fluorescence polarization. inhibition, % at 35 µM. 1% of 290,000 active. AID 2014;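 active means 50% or more with normal probe brightness, or confirmed in later tests; inconclusive means above 50% with abnormal brightness, or retests that disagree; inactive means below 50% or failed in later tests; about a fifth of its hits are not listed in these tables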;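 further: calls also rest on retests at 20 µM and on dose response follow-up; controls were probe without protein and protein plus probe with vehicle; some compounds called inactive have numbers as strong as hits; many hits fall short of the cut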
Env fusion inh: blocks HIV Env-driven cell-cell fusion; HeLa-JRFL Env/CEM21 cell fusion, luciferase; inhibition, % at 12.3 µM; 1.1% of 360,000 active; AID 651610;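 active means mean replicate inhibition score of at least 50 and every replicate individually at or above 50; inconclusive means only one of the two criteria met; inactive means mean below 50 and not all replicates reaching 50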;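 further: 0% = plate neutral controls and 100% = maraviroc near 300 nM; one replicate is shown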
eIF4H FP inh: inhibitors of RNA binding by human eIF4H; Q15056; eIF4H fluorescence polarization binding assay; inhibition, % at 35 µM; 0.94% of 290,000 active;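 active means 50% or more with normal probe brightness, or confirmed in later tests; inconclusive means above 50% with abnormal brightness, or retests that disagree; inactive means below 50% or failed in later tests; about a fifth of its hits are not listed in these tables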;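 further: calls also rest on retests at 20 µM and on dose response follow-up; 0% = protein and probe with vehicle and 100% = probe without protein; strong numbers were not always called active; many hits fall short of the cut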
Yeast UUG start: alters start codon recognition fidelity in yeast; S. cerevisiae UUG-firefly luciferase reporter, luminescence/redox ratio; activity score, % at 18.7 µM; 0.13% of 350,000 active; AID 602363;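 active means replicate mean at a twofold rise or more, about +100% in these data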;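 further: firefly luciferase made from a UUG start codon reports start codon fidelity; reporter light over untreated wells divided by growth signal over untreated wells; some hits fall short of that in this replicate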
Rce1 inhib: blocks yeast Ras-converting enzyme | AID 2563 | 0.27% of 290,000 active | yeast membranes, quenched prenylated peptide cleavage fluorescence | calls only;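 active means fall in fluorescence gain of 50% or more versus controls, with final raw signal at or below 3038400; inconclusive means same 50% fall but final raw signal above 3038400; inactive means fall in fluorescence gain under 50%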;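 further: plate controls were neutral control wells for no effect and wells lacking membranes for full effect; tested at 10 µM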
Target sequence (Q03530 whole entry, looked up): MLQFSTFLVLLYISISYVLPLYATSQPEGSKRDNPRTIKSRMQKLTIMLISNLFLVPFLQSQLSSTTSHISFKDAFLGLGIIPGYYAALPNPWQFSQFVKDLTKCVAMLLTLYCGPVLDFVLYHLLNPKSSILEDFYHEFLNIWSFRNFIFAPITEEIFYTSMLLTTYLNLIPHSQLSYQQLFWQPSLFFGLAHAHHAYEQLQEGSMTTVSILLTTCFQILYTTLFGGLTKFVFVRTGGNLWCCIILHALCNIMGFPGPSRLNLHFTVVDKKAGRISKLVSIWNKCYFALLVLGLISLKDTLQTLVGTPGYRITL
MT1-MMP act inh: blocks activation of human MT1-MMP; 0.061% of 360,000 active; AID 651647; P50281; HT1080 RFP-PRO-GFP cells, GFP/RFP ratio fluorescence, overnight; percent of plate control window, DMSO zero; GFP/RFP ratio change, % at 20 µM;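 active means GFP/RFP ratio change of at least 30% with cell ATP level not reduced by more than half and red fluorescence within 50% of control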; further: strong numbers were not always called active
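Compound: 20 µM single dose, 1% DMSO / System: HT1080 RFP-PRO-GFP cells / Controls: DMSO and RFP-L50D-GFP cell wells / Read-out basis: GFP/RFP fluorescence ratio / Schedule: overnight compound exposure at 37 °C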
CSC inhib: cancer stem cell inhibition; cancer stem cell-like cells viability, luminescence; inhibition, % at 7.5 µM; 1.1% of 300,000 active;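 active means mean at 75% or more and at least half the replicates too; inconclusive means mean and replicates disagree; tested in HMLE shEcad cells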;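 further: 0% = median of negative and 100% = median of positive control wells; the first replicate is given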
MT1-MMP act inh RFP: recorded beside MT1-MMP act inh, whose call it bears; RFP signal change, %; measured here: RFP expression control read;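 0 = vehicle wells; hits needed this value within 50% of zero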
Active calls of the source: *; i = inactive; ? = inconclusive; / = no result given; & = joins results of further samples; [ ] = remark or other dose. A portion of the library; count on the stated rates, not on these rows.

SMILES	eIF4H FP inh	PABP FP inh	Env fusion inh	CSC inhib	Rce1 inhib	MT1-MMP act inh RFP	Yeast UUG start	MT1-MMP act inh
CCc1nc2ccc(C(=O)Nc3cccc(OCC(=O)N(C)C)c3)cn2c1N(C)C(=O)c1ccncc1	/	/	0.8	/	/	-3.5	-19.9	1.0
CCn1c(C)nc2cc(C(=O)NN=Cc3ccc([N+](=O)[O-])cc3)ccc21	/	/	/	-0.6	/	2.8	-3.7	9.1
COC(=O)CC/C(=N/Nc1ccc(Cl)c(Cl)c1)C(=O)OC	-2.3	10.2	-10.8	-1.1	i	0.8	/	-1.1
COc1cccc(CNC(=O)c2cc(S(=O)(=O)N3CCCCC3)ccc2C)c1	/	/	19.9	/	/	0.0	7.7	4.7
Oc1ccc(Br)cc1-c1ccn[nH]1	-3.3	-12.8	-0.8	6.0	i	2.1	-18.7	0.5
Cc1c(-c2cccc(Cl)c2)nc2ccccc2c1C(=O)OCC(=O)N(C)C1CCS(=O)(=O)C1 (stereo not given)	-7.0	6.7	-1.9	19.2	i	-4.1	16.0	0.0
COC(=O)c1cc(C#N)c(=O)[nH]c1C	31.0	16.5	-40.9	-3.8	/	2.4	/	-0.9
CCOC(=O)C(=O)C1=C(N2CCOCC2)/C(=C\c2ccc(F)cc2)CC1	10.6	2.4	-31.7	0.8	i	3.4	/	-2.1
Cc1ccc(-c2csc(N3CCN(c4cc5c(cc4Cl)nc(-c4ccncc4)n5CCN4CCCCC4)CC3)n2)cc1	-0.1	17.9	7.5	-5.7	i	4.5	-8.4	3.6
Cc1cc(NC(=O)c2sccc2C)n(-c2nc3ccccc3[nH]2)n1	6.3	-6.9	13.4	-1.2	i	-0.9	-19.8	5.7
COc1ccc2nc(NCc3ccccc3)[nH]c2c1	-12.3	-1.5	-90.1	39.9	i	-6.8	-21.5	10.8
COc1ccc(CC(NC(C)=O)C(=O)NC2CCN(C(=O)NCc3ccccc3)CC2)cc1 (stereo not given)	10.3	-6.0	/	-3.2	i	1.7	-11.4	2.6
Cc1cc(C)c(C(=O)NC2CC(C)(C)Cc3c2cnn3-c2ccccc2)o1 (stereo not given)	-7.7	5.6	9.2	-0.8	i	-5.4	7.0	-4.9
CCOc1ccc2ccccc2c1CNCCc1ccc(S(N)(=O)=O)cc1	-4.1	2.1	17.4	/	i	3.5	-14.4	-1.3
CC1Cc2ccccc2N1C(=O)CSc1nccc(=O)[nH]1 (stereo not given)	-11.6	0.3	1.0	10.3	i	5.6	/	3.8
COc1cc(OC)cc(C(=O)Nc2ccc(S(=O)(=O)Nc3nc(C)cc(C)n3)cc2)c1	-4.5	3.6	5.3	-13.7	i	2.9	/	2.7
O=C(NCCN1CCN(c2cccc(Cl)c2)CC1)Nc1ccccc1	8.2	-5.9	-1.9	7.7	i	-1.1	-0.4	5.2
CC(=O)N1CC[n+]2c(-c3ccc([N+](=O)[O-])cc3)csc21	-9.0	15.9	1.2	13.8	i	0.5	-8.0	10.1
O=C(O)Cn1cc(C(=O)C(F)(F)F)c2ccccc21	-12.4	5.9	-21.3	1.9	/	2.6	-3.4	2.8
CCCc1cc(=S)n2c([nH]c3ccccc32)c1C#N	17.9	31.1	13.2	18.5	i	-10.9	/	-2.8
O=C(c1cccc(S(=O)(=O)N2CCCCCC2)c1)N1CCN(Cc2ccccc2)CC1	/	/	-3.0	/	/	-6.8	6.0	-4.2
CC(C)(C)SCCNS(=O)(=O)c1ccccc1	-1.9	5.3	/	/	i	4.0	-15.6	6.1
COc1cccc(NC(=O)CN(C)C(=O)C(Sc2ccccc2)c2ccccc2)c1 (stereo not given)	/	/	-10.0	/	/	-5.0	-11.6	6.3
CC1=NN(C(N)=S)C(=O)C1N=Nc1c(Cl)cc([N+](=O)[O-])cc1Cl (stereo not given)	15.2	11.8	-20.0	28.0	i	-12.8	-39.9	10.7
CSc1nc(Oc2ccccc2)c2sccc2n1	-2.0	-2.9	/	2.0	i	3.7	20.2	4.8
CCC(=O)Nc1nnc(CCc2ccccc2)s1	-2.7	-7.0	/	-12.2	i	-2.9	1.5	0.6
CC12CCC(=O)N1C(C(=O)NCc1ccccc1F)CS2 (stereo not given)	/	/	3.9	9.3	i	2.9	-10.7	1.2
COc1ccc(CCNC(=O)CNC(=O)N2CC(=O)Nc3ccccc32)cc1OC	/	/	-11.4	/	/	-1.1	5.1	3.0
CCc1ccc(S(=O)(=O)Nc2c(NC3CCCCC3)c3ccccc3oc2=O)cc1	-11.3	2.8	/	/	i	-4.7	-4.1	-1.4
Cc1ccc2oc(=O)n(Cc3ccc(OC(C)C)cc3)c2c1	0.5	-3.1	8.4	-1.6	/	-2.0	-10.4	1.1
CC1(C)Cc2c(sc3nc(SCC(=O)NCc4ccccc4)n(-c4ccccc4)c(=O)c23)CS1	11.2	7.5	138.2*	-1.6	i	-4.2	-14.3	-3.1
CCCn1c(=O)c2ccccc2n2c(SCc3c(C(=O)OCC)oc4ccccc34)nnc12	-2.5	-0.1	/	5.3	/	-2.9	/	-2.6
CCN(CC)C(=O)c1csc(COCCO)n1	/	/	-12.1	/	/	2.7	-0.8	4.9
C=CCN1C(=O)C(CC(=O)Nc2ccccc2)SC1=Nc1c(C)n(C)n(-c2ccccc2)c1=O (stereo not given)	3.4	-0.5	-50.8	-1.6	i	-1.7	7.7	-2.0
CC(OC(=O)c1ccc(S(=O)(=O)N(C)C)cc1)C(=O)Nc1ccc(Cl)cn1 (stereo not given)	-0.6	-0.6	-6.7	1.0	i	1.9	-6.3	0.3
Cc1cccc(C(=O)Nc2ccc3c(c2)ncn3C)c1	2.9	3.2	-16.6	-2.8	i	3.5	-13.8	5.0
O=C(Nc1ccccc1F)c1ccc2c(c1)OCO2	2.5	13.2	-24.8	10.5	i	1.9	-8.2	-1.1
OCCOCCNc1ncnc2c1cnn2-c1ccccc1	-0.3	-5.8	/	-13.6	i	0.8	-9.9	0.5
CC(Sc1nnc(COc2ccc(Cl)cc2)o1)C(=O)Nc1ccc(N2CCOCC2)cc1 (stereo not given)	/	/	12.9	/	/	-2.5	-10.4	-2.7
O=C(CSc1nnc(CNc2ccc(F)cc2)o1)N1c2ccccc2Sc2ccccc21	-14.7	-12.7	63.7*	-2.0	i	-12.0	2.9	-5.7
CCOC(=O)CNC(=O)CSc1ncccc1-c1nc2ccccc2[nH]1	-5.1	0.2	11.7	-0.7	/	0.3	-17.6	-0.3
CC(=O)Nc1ccc(S(=O)(=O)NCCC(=O)OCc2ccc([N+](=O)[O-])cc2)cc1	-4.1	11.0	-6.1	-4.5	i	-2.1	-11.0	-0.8
CCOC(=O)/C(C#N)=C\N(C)C	-1.9	-2.0	-17.9	-9.5	i	3.9	-12.5	-1.9
O=C(CCCOc1ccccc1)Nc1cccc([N+](=O)[O-])c1	-2.1	4.7	11.9	22.6	i	2.7	-6.0	6.5
CCOCCn1c(C)c(C(=O)OCC)c2cc(O)c3ccccc3c21	/	/	18.9	-2.8	/	-2.1	-2.7	1.5
COc1ccc(OC)c(S(=O)(=O)N/N=C\c2ccc3c(c2)OCO3)c1	-8.1	7.2	/	13.6	i	0.3	-14.6	-6.9
COc1ccc(C(=O)/C=C/c2ccccc2)c(O)c1	8.9	6.8	/	25.5	i	-0.6	-14.9	4.8
CC(=O)N(Cc1ccccc1)Cc1nc2sc(C)c(C)c2c(=O)[nH]1	1.2	-2.8	9.4	19.1	i	-0.9	-13.5	-4.2
Cn1c(=O)c2c(nc(CN3CCOCC3)n2CCCc2ccccc2)n(C)c1=O	1.9	-2.7	-175.5	-9.5	i	1.1	-14.4	5.8
COc1cc2[nH]c(=O)n(C3CCCCC3)c(=O)c2cc1OC	-4.8	-3.2	/	-0.8	i	-2.6	/	0.2
COc1cc2c(cc1OC)C(C)N(C(=O)c1c(-c3ccccc3)noc1C)CC2 (stereo not given)	-5.1	-13.1	-172.1	22.9	i	-4.0	-11.9	1.6
C[C@@H]1CN([C@@H](C)CO)C(=O)c2cc(NS(C)(=O)=O)ccc2O[C@@H](C)CCCCO[C@H]1CN(C)Cc1ccc2c(c1)OCO2	/	/	-1.9[16.7 µM]	/	/	8.4	-11.9&25.7	-0.8
O=C(CC1(O)C(=O)c2ccccc2C1=O)c1ccccc1	-11.7	2.4	5.6	3.0	/	3.3	-10.7	4.6
Cc1ccc(NC(=O)C2CCN(S(C)(=O)=O)CC2)cc1Cl	-8.5	-7.9	-14.0	-18.4	i	/	17.7	/
CC1CN(C(=S)Nc2ccc(F)cc2F)CC(C)O1 (stereo not given)	-4.3	6.2	/	-1.3	i	5.2	-10.8	0.0
CCN(C(=O)CSc1nc2ccccc2o1)C1CCS(=O)(=O)C1 (stereo not given)	/	/	-21.5	-0.8	i	-0.7	-15.1	0.2
CCCOc1ccc(/C=C/C(=O)OCC(=O)N(C)c2c(N)n(Cc3ccccc3)c(=O)[nH]c2=O)cc1OCC	/	/	-32.4	2.9	/	-3.0	-10.9	-2.6
Cc1ccc(S(=O)(=O)Oc2ccccc2/C=N/O)cc1	-10.8	-9.0	-3.8	2.9	i	-2.4	-0.6	-0.3
O=C1C2C3C=CC(C3)C2C(=O)N1Cc1cccnc1 (stereo not given)	-6.2	9.8	/	-6.1	i	1.3	-19.5	-2.1
O=C(O)c1cc(NN=Nc2cccc([N+](=O)[O-])c2)cc([N+](=O)[O-])c1	-11.1	-0.2	1.8	-5.8	i	-2.3	-18.8	-8.9

The list goes on:
SMILES	eIF4H FP inh	PABP FP inh	Env fusion inh	CSC inhib	Rce1 inhib	MT1-MMP act inh RFP	Yeast UUG start	MT1-MMP act inh
COCCN1CCN(C(=O)C2CCC(=O)N(CCc3ccccc3)C2)CC1 (stereo not given)	2.0	-5.2	-7.3	-10.2	i	-0.2	-2.6	0.5
Cc1nn2c3c(cnc2c1-c1ccccc1)C(=O)CC(c1ccccc1)C3 (stereo not given)	4.0	-10.7	24.9	6.7	i	-7.7	-8.0	-4.2
CC1=C/C(=N\OS(=O)(=O)c2ccccc2)C=CC1=O	?	-13.1	/	-0.6	i	27.1	-13.2	23.3
COC(=O)CCC(=O)Nc1ccc(OC)cc1	-1.1	7.8	/	-7.8	i	5.6	-11.2	0.2
COc1cc2c(cc1Cl)/C(=C\CCN(C)C)c1ccccc1S2	-2.4	5.4	-117.7	26.8	i	-6.1	-11.9	-7.3
O=C(NC1CC1)c1ccc(-c2nc3ccccc3s2)s1	5.2	4.7	/	13.5	i	-0.6	/	5.7
CC(=O)c1ccccc1NC(=O)CSCc1nc2sc(C)c(C)c2c(=O)[nH]1	/	/	-5.2	/	/	0.1	-22.8	-17.6
O=C(CCC(=O)n1ncc2ccccc21)N1CCCCC1	-6.2	-7.1	/	33.9	i	6.7	0.9	3.1
[2H]c1c([2H])c([2H])c(C(=O)c2sc(N3CCCCCC3)nc2-c2ccccc2)c([2H])c1[2H]	-2.8	7.1	/	28.7	i	-12.5	-15.4	-6.5
Cc1ccccc1NS(=O)(=O)c1cc2c3c(c1)CC(=O)N3CCC2	/	/	-6.3	-35.5	i	0.4	12.8	0.3
